HSV replic up – enhancers of HSV replication in host cells, fold increase, host cell viability. HSV replication augmentation in cells. maximum fold increase. AID 1956, 2009. 0.005% of 220,000 active;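 active = peak rise of 1.5-fold or more in the series; tested in PC3 cells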;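 also: first round at 10 µM; read as green reporter fluorescence; hits show the peak of a series up to 25 µM; 1 = signal of infected wells without compound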
Insulin prom inh – inhibitors of insulin promoter-driven GFP, primary screen, imaging, TRM-6 cells (human fetal islet line), eGFP reporter, cell count | reporter expression induced with tamoxifen | inhibition, % at 2 µM | 0.9% of 130,000 active | AID 1273, 2008;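 active = inhibition above the mean plus 3 SD, with well images judged a real hit on visual review, cut at about 60% in these data, passing the limit was not always enough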
PKD1 kinase inh – inhibitors of human PKD1 kinase, biochemical, fluorescence polarization. Serine/threonine-protein kinase D1 (Homo sapiens), Q15139. PKD1 kinase fluorescence polarization assay. inhibition, %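 (about 10 µM by stock and volumes)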. 0.056% of 200,000 active. AID 797, 2007;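 active = inhibition of 50% or more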;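 also: controls were vehicle for no effect and a reference inhibitor for full effect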
RGS16-Gao – modulators of RGS16 binding to Galphao, primary screen, biochemical, human proteins, multiplexed bead flow cytometry; binding response (% of control), % at 10 µM; bead-based flow cytometry RGS16-Galphao binding, fluorescence; actives lie on both sides; 0.38% of 220,000 active; Regulator of G-protein signaling 16 (Homo sapiens) + Guanine nucleotide-binding protein …; AID 1441, 2008;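 active = below 25% or above 175%, edge rows of some plates excepted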;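 also: Galphao activated by GDP with aluminum fluoride before binding; 100% = wells without compound and 0% = beads without RGS; some results beyond the cut were filed as inactive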
Target sequence (O15492 whole entry, looked up): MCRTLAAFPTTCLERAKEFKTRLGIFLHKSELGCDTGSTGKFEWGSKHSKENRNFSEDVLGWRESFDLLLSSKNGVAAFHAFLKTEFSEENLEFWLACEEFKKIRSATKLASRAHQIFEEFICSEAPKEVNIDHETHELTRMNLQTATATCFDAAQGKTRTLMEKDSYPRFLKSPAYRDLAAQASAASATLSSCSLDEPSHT
Target sequence (P09471 whole entry, looked up): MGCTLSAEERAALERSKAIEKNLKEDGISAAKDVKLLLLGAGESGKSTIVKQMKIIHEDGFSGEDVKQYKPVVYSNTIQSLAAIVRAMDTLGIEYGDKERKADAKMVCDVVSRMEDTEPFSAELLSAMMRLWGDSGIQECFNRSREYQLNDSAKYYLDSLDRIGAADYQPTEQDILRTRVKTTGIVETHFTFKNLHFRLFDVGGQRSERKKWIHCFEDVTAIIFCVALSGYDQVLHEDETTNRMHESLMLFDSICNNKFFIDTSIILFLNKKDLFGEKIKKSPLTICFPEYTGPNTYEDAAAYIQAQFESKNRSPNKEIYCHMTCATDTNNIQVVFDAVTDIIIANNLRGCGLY
GALR2 ag – GALR2 receptor agonists, primary screen, cell-based. 0.48% of 140,000 active. GALR2-expressing cells, agonist activation read-out. activation, %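 (tested at 5 µM)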. Galanin receptor type 2 (Homo sapiens), O43603. AID 803, 2007;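 active = above mean plus 3 SD of all compounds, about 5% in these data, not always enough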;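 also: 0% = vehicle buffer wells and 100% = reference agonist at full effect; tested in CHO reporter cells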
Target sequence (O43603 whole entry, looked up): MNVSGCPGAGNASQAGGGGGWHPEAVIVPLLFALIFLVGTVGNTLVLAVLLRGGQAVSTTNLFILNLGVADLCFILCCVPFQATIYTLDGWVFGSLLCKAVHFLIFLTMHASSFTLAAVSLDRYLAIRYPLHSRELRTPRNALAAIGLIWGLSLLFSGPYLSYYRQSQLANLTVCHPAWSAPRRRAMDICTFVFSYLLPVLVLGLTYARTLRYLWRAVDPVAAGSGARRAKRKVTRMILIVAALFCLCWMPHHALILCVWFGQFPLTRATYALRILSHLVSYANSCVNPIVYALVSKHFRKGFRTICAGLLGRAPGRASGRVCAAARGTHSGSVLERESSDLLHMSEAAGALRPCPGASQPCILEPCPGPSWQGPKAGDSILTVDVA
Insulin prom inh cell count – also measured in Insulin prom inh; calls as there; normalized cell count, %; measured here: cell count, toxicity; reference of the scale not given here;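 cells exposed to compound for 48 h; stained nuclei by imaging scaled within each plate; lower means fewer cells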
HSV replic up primary fold – further read-out of HSV replic up, marked with its call; fold increase; compound at 10 µM; measured here: primary screen fold increase 10 uM; tested in PC3 cells;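 GFP signal in the first replicate; 1 = infected wells without compound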
Active calls of the source: *; i = inactive; / = no result given.

SMILES	HSV replic up	HSV replic up primary fold	Insulin prom inh	Insulin prom inh cell count	PKD1 kinase inh	RGS16-Gao	GALR2 ag
O=C(NC(=S)Nc1ccc2oc(=O)ccc2c1)c1ccc(-c2cccc(Cl)c2Cl)o1	i	0.88	20.0	111.7	-9.3	116.2	-0.9
O=C(Cn1nnc(-c2ccccc2Cl)n1)N/N=C/c1ccc(-c2cccc(Cl)c2)o1	i	0.89	35.7	105.0	5.4	96.6	-0.8
CCn1nc(C)c(C(=O)Nc2cc(Oc3ccc(Cl)cc3)cc([N+](=O)[O-])c2)c1C	i	0.78	-18.3	131.2	-7.6	104.3	-1.3
CCOC(=O)C1=C(C)Nc2nnnn2C1c1ccccc1Cl (centres undefined)	i	0.81	60.0	104.2	-9.7	99.3	-0.3
O=c1[nH]cnc2sc3c(c12)CCC3	i	1.14	/	/	/	94.4	/
COc1ccc(NC(=O)COC(=O)C(CC(C)C)N2C(=O)C3CC=CCC3C2=O)cc1Cl (centres undefined)	i	0.9	/	/	-6.6	104.5	0.3
O=C(NN1C(=O)C2C(c3ccccc3)C=CC(c3ccccc3)C2C1=O)c1cccc(Br)c1 (centres undefined)	i	0.95	-20.6	125.7	-7.5	96.6	-1.7
CC(C)CNC(=O)c1ccc(Cl)c(NC(=O)COc2ccccc2)c1	i	0.82	/	/	5.8	106.0	/
CCOC(=O)N1CCN(c2cc(=O)n(-c3ccccc3C)c(=O)[nH]2)CC1	i	0.97	-35.3	73.6	3.7	99.4	/
O=C(CCl)N(c1ccccc1)c1ccccc1	i	1.08	/	/	-8.7	95.4	/
Cc1cccc(Nc2c3c(nc4ccccc24)CCC3)c1	i	0.68	/	/	/	100.2	/
CCOC(=O)C/C(C)=N\Nc1nc(-c2ccccc2)cs1	i	0.97	25.9	138.9	0.4	101.5	/
CCC(C)(C)n1nnnc1C(c1cc2cc(OC)c(OC)cc2[nH]c1=O)N1CCc2ccccc21 (centres undefined)	i	0.89	-22.2	79.5	8.8	98.8	-1.2
CCN(Cc1ccccc1)S(=O)(=O)c1cc(C(=O)NC2CCCCCC2)ccc1OC	i	0.72	15.4	108.3	-18.8	104.5	1.0
S=C(Nc1ccccc1)Nc1ccc(Br)cn1	i	0.7	/	/	3.0	105.6	/
O=C1c2ccccc2C(O)(Cc2ccccc2)N1CCCN1CCOCC1 (centres undefined)	i	0.98	-162.5	59.6	-13.6	98.9	-0.4
CCCCNC(=O)CCNS(=O)(=O)c1ccc(C)cc1	i	0.9	-33.3	102.0	-3.0	104.9	-3.1
O=C(O)CC(NS(=O)(=O)c1c(F)cc(F)cc1Br)c1ccccc1Cl (centres undefined)	i	0.93	/	/	-1.9	104.7	/
CC(=O)NC(=S)NNC(=O)c1ccc(Br)cc1	i	0.92	/	/	0.5	91.7	/
CN(C)c1ccc(C(=O)Nc2ccc(O)c3c(=O)cc(-c4ccccc4Cl)oc23)cc1	i	0.9	/	/	/	88.0	/
OCCC1CN(Cc2ccc(-n3cccn3)cc2)CCN1Cc1ccccc1 (centres undefined)	i	0.93	/	/	-2.0	104.5	/
CC(C)CC(=O)N1CCC(O)(CS(=O)(=O)Cc2ccc(Cl)cc2)CC1	i	0.93	-9.7	94.8	-10.1	99.2	-2.1
COc1ccc(CN(C)c2nc(-c3cccnc3)nc3ccccc23)cc1OC	/	/	-7.1	100.7	-4.8	106.0	/
Cc1ccc(NC(=O)CN(C)CC(=O)Nc2ccccc2Oc2ccccc2)cc1	i	1.06	/	/	-6.6	100.9	/
COc1cccc(-c2cc(=O)c3cc(NC(=O)c4ccc(N(C)C)cc4)ccc3[nH]2)c1	i	0.52	-150.0	8.9	1.7	36.8	1.5
CCCSc1nnc(NC(=O)Nc2ccccc2)s1	i	0.98	/	/	-11.1	94.4	-0.3
O=C(NC1C(=O)NNC1c1ccc(Cl)cc1)c1ccc(F)cc1 (centres undefined)	i	0.93	/	/	-5.7	103.8	/
CCc1c(C)[nH]n(-c2nc(-c3ccccc3)cs2)c1=O	i	0.95	/	/	6.7	100.5	/
COc1ccc(OC)c(C(=O)COC(=O)CNC(=O)c2ccccc2)c1	i	1.01	/	/	-0.6	110.1	-0.6
COc1ccc(NC(=O)c2ccco2)cc1NC(=O)c1ccc(Br)o1	i	1.03	73.0*	94.7*	2.1	104.1	0.8
NC(=O)C1CCCN(S(=O)(=O)c2ccccc2)C1 (centres undefined)	i	0.9	29.4	145.6	-5.3	93.7	-1.4
O=c1[nH]c(=O)n(-c2ccc(F)cc2)c2c1C(C(F)(F)F)(C(F)(F)F)N=C(c1ccc(F)cc1)N2	i	0.92	/	/	-9.2	101.2	-0.9
CCCCN(C)C(=O)c1nc2ccccn2c1CNCCCn1ncc2ccccc21	i	1.02	/	/	/	106.5	/
COC(=O)c1ccc(C(=O)OC)c(NC(=O)c2cc3ccccc3o2)c1	/	/	26.2	116.6	2.5	/	-1.8
CCn1cc(C(=O)Nc2ccc(OC)c(OC)c2)c2cc(OC)c(OC)cc2c1=O	i	0.91	50.0	94.5	-2.3	98.6	-0.3
Cc1nn(CC(O)COc2ccc3c(c2)CCC3)c(C)c1C (centres undefined)	i	0.85	-20.0	296.4	3.6	109.5	-2.5

Gathered by group: those above with a Cl atom.
SMILES	HSV replic up	HSV replic up primary fold	Insulin prom inh	Insulin prom inh cell count	PKD1 kinase inh	RGS16-Gao	GALR2 ag
O=C(NC(=S)Nc1ccc2oc(=O)ccc2c1)c1ccc(-c2cccc(Cl)c2Cl)o1	i	0.88	20.0	111.7	-9.3	116.2	-0.9
O=C(Cn1nnc(-c2ccccc2Cl)n1)N/N=C/c1ccc(-c2cccc(Cl)c2)o1	i	0.89	35.7	105.0	5.4	96.6	-0.8
CCn1nc(C)c(C(=O)Nc2cc(Oc3ccc(Cl)cc3)cc([N+](=O)[O-])c2)c1C	i	0.78	-18.3	131.2	-7.6	104.3	-1.3
CCOC(=O)C1=C(C)Nc2nnnn2C1c1ccccc1Cl (centres undefined)	i	0.81	60.0	104.2	-9.7	99.3	-0.3
COc1ccc(NC(=O)COC(=O)C(CC(C)C)N2C(=O)C3CC=CCC3C2=O)cc1Cl (centres undefined)	i	0.9	/	/	-6.6	104.5	0.3
CC(C)CNC(=O)c1ccc(Cl)c(NC(=O)COc2ccccc2)c1	i	0.82	/	/	5.8	106.0	/
O=C(CCl)N(c1ccccc1)c1ccccc1	i	1.08	/	/	-8.7	95.4	/
O=C(O)CC(NS(=O)(=O)c1c(F)cc(F)cc1Br)c1ccccc1Cl (centres undefined)	i	0.93	/	/	-1.9	104.7	/
CN(C)c1ccc(C(=O)Nc2ccc(O)c3c(=O)cc(-c4ccccc4Cl)oc23)cc1	i	0.9	/	/	/	88.0	/
CC(C)CC(=O)N1CCC(O)(CS(=O)(=O)Cc2ccc(Cl)cc2)CC1	i	0.93	-9.7	94.8	-10.1	99.2	-2.1
O=C(NC1C(=O)NNC1c1ccc(Cl)cc1)c1ccc(F)cc1 (centres undefined)	i	0.93	/	/	-5.7	103.8	/

Next part:
SMILES	HSV replic up	HSV replic up primary fold	Insulin prom inh	Insulin prom inh cell count	PKD1 kinase inh	RGS16-Gao	GALR2 ag
O=C(CN1CCCCC1)Nc1cccc(Cl)c1	i	0.98	/	/	-4.0	102.5	/
CCN(c1ccc(NC(=O)COC(=O)c2ccc(C)c(S(=O)(=O)N3CCOCC3)c2)cc1)C(C)C	i	0.68	-37.1	73.4	-0.6	114.0	-2.5
CC(=O)c1cccc(NC(=O)N2CCCC2C(=O)NCc2ccccc2)c1 (centres undefined)	i	0.98	/	/	-3.8	101.2	-1.2
COCC(C)n1c(SCc2ccc(OC)c(F)c2)nc2ccccc2c1=O (centres undefined)	i	0.92	-90.9	183.2	-7.9	117.7	/
COC(=O)C1=C(N)Oc2cc(C)n(Cc3cccnc3)c(=O)c2C1c1ccc(OC)c(OC)c1OC (centres undefined)	i	1.08	9.1	121.8	-8.3	100.0	-1.7
O=C(COC(=O)c1ccc[nH]c1=O)NCCc1ccc(Cl)cc1Cl	i	1.02	/	/	/	98.8	/
CCCC(=O)Nc1c(O)c2ccccc2[nH]c1=O	i	0.92	54.5	120.8	-12.6	94.1	-1.8
COc1ccc(N(CC(=O)NCC(C)C)S(=O)(=O)c2ccccc2)cc1	i	1.03	/	/	-1.1	105.5	/
CCOC(=O)C1=C(C)C(c2ccccc2O)NC(=O)N1 (centres undefined)	i	0.83	0.0	111.3	-6.6	100.2	-0.5
O=C(Oc1cccc(N2C(=O)CCC2=O)c1)C1CC(=O)N(c2ccc(Br)cc2)C1 (centres undefined)	/	/	2.9	167.0	-0.5	99.6	-0.6
CCc1ccc(Nc2cc(C)nc3nc(C)nn23)cc1	/	/	26.8	104.9	-4.8	117.5	1.5
COc1cc(C2NC(=S)NC(O)(C(F)(F)F)C2C(=O)c2cccs2)cc(OC)c1O (centres undefined)	i	0.85	41.7	97.8	-0.4	44.4	0.9

The closing two entries of the section before open the next one.
SMILES	HSV replic up	HSV replic up primary fold	Insulin prom inh	Insulin prom inh cell count	PKD1 kinase inh	RGS16-Gao	GALR2 ag
CCc1ccc(Nc2cc(C)nc3nc(C)nn23)cc1	/	/	26.8	104.9	-4.8	117.5	1.5
COc1cc(C2NC(=S)NC(O)(C(F)(F)F)C2C(=O)c2cccs2)cc(OC)c1O (centres undefined)	i	0.85	41.7	97.8	-0.4	44.4	0.9
Cc1ccc(C(=O)/C=C/c2ccc(F)cc2)o1	i	1.13	3.9	75.3	-5.6	95.0	-1.3
COc1ccc(NC(=O)COC(C)=O)cc1Cl	i	1.1	12.5	99.4	-9.9	100.5	-0.9
Nc1c(C(=O)N/N=C/c2cccnc2)cnn1-c1ccccc1	i	1.04	0.0	89.8	-6.9	117.7	-0.4
Cc1ccc(S(=O)(=O)N(NC2=NS(=O)(=O)c3ccccc32)C(=O)c2ccccc2)cc1	i	0.95	-25.9	156.8	-6.1	103.3	-0.4
O=S1(=O)N=C(N2CCc3ccccc3C2)c2ccccc21	i	0.81	/	/	-0.4	103.5	-0.2
COc1ccc(-c2cc(=Nc3ccc(C)cc3)c3ccccc3o2)cc1	i	0.98	0.0	141.7	1.9	91.0	-2.6
COc1cc(C(=O)OCC(C)=O)c([N+](=O)[O-])cc1OC	i	1.08	16.7	72.2	0.8	90.6	/
Cn1c(=O)oc2cc(S(=O)(=O)N3CCN(c4cccc(Cl)c4)CC3)ccc21	i	0.77	/	/	0.3	97.4	0.1
O=C(CNC(=O)c1ccco1)OC(C(=O)c1ccccc1)c1ccccc1 (centres undefined)	i	0.91	-6.2	107.7	-0.8	55.2	-2.6
CCCCC(=O)NCc1ccc(F)cc1	i	1.01	-18.8	103.2	-15.8	90.6	-0.2
CC1OC(Nc2ccc(N=Nc3ccccc3)cc2)C(O)C(O)C1O (centres undefined)	i	0.87	/	/	1.0	102.3	/
O=C1CC(c2ccccc2)Cc2nc3nc(C(F)(F)F)nn3cc21 (centres undefined)	i	0.9	15.4	149.1	-0.4	96.4	-0.8
CCCOc1ccc(Cn2c(O)cc(=O)[nH]c2=O)cc1	i	1.23	37.5	100.6	-7.3	100.2	-3.7
O=c1nc2n(c3ccc([N+](=O)[O-])cc13)CCCCC2	i	0.98	/	/	-2.6	96.5	/
Cc1ccc(SCCN)cc1C	i	0.99	/	/	-2.6	100.7	/
CC(C)(C)Nc1nc(SCC(=O)Nc2ccccc2)nc(N2CCOCC2)n1	i	1.08	/	/	-7.0	142.1	/
Fc1ccc(/C=N/NC(=S)Nc2ccc(Cl)cc2Cl)cc1	i	0.74	/	/	/	100.3	/
CCN(CCO)Cc1cc(=O)oc2cc3c(cc12)CCC3	i	0.93	/	/	-3.5	91.5	/
O=C(CSc1cccc[n+]1[O-])NC1CCCCCCC1	i	0.87	/	/	-0.3	100.0	/
CN(CCCNC(=O)CSc1cc(=O)n(C)c2cc(Cl)ccc12)Cc1ccccc1	i	0.87	/	/	-8.3	101.7	/
CCOc1cc(CNCc2ccccn2)ccc1OCC(=O)NC1CCCCC1	i	0.93	-16.2	125.9	-1.6	101.1	-3.1
CCC(=O)c1ccc(OCC(O)CN2CCCCC2)cc1 (centres undefined)	i	1.19	61.1	95.2	0.9	101.0	-3.6
O=C(CCl)Oc1ccc2occ(C(=O)c3cccs3)c2c1	i	0.9	-10.7	79.1	0.7	104.2	-0.7

Bioassay records (PubChem BioAssay)
